Screening data (PubChem BioAssay)
VACV mCherry inh – inhibitors of vaccinia virus infection (mCherry reporter signal) | Vaccinia virus mCherry reporter infection, fluorescence; about a quarter of the inactives have no number | Potency, µM (titrated, usually from 36.5 µM), inactives show at the highest dose activity change, negative = inhibition, hits mostly inhibitors | 0.63% of 310,000 active | AID 720579; active = well fitted inhibition curve with a large enough effect; inconclusive = small, poorly fitted or top-dose-only effect; inactive = no such curve, though single readings can be large or run the other way; tested in A549 cells; further: nearly all actives have a fitted effect of over 35% in size; inactives centre near -10
VACV Venus inh – inhibitors of vaccinia virus (Venus reporter). Vaccinia virus Venus reporter expression, fluorescence. Potency, µM (series often up to 36.5 µM), for the others: top-dose activity change, negative = inhibition, hits mostly inhibitors. 0.46% of 330,000 active. AID 720580; active means well fitted inhibition curve with a large enough effect; inconclusive means small, poorly fitted or top-dose-only effect; inactive means no such curve, though single readings can be large or run the other way; tested in A549 cells; further: nearly all actives have a fitted effect of over 30% in size; inactives centre near -10
* marks the source's active call; other numbers are inactive results; i = inactive; ? = inconclusive; . = no result given; & = joins results of further samples; [ ] = remark or other dose. On the % scale 0 is the no-effect control and ±100 the full control effect; potency means the concentration at half of the fitted maximal effect.

SMILES | VACV mCherry inh | VACV Venus inh
Cc1cccc(C(C)(C)C)c1OCCCCN1CCCC1 | -22.3% | -21.7%
COc1ccc(CN2C(=O)C(CC(=O)NCCCCc3ccccc3)CC(C(=O)N(C)C)=C2C)cc1 (configuration not stated) | ? | -20.6%
CC(C)(C)c1ccc(/C=N/NC(=S)NC2CCCCC2)cc1 | i | -12.6%
CCc1nnc(NC(=O)CS(=O)(=O)Cc2ccccc2)s1 | 3.9% | 0.5%
CC(C)(C)n1nnnc1C(c1ccnc2ccccc12)N1CCN(C/C=C/c2ccccc2)CC1 (configuration not stated) | i | -6.1%
CN(C)c1ccc(/C=C2\c3ccccc3-c3ccc(N(C)C)cc32)cc1 | -13.3% | -4.1%
O=C(c1ccccc1F)N1c2ncnn2C2(CCCCC2)[C@@H]2CCCC[C@@H]21 | -15.8% | 3.1%
Cc1ccccc1NC(=O)CC1SCCNC1=O (configuration not stated) | . | -15.3%
CCCNC(=O)C(Cc1ccc(F)cc1)NC(=O)c1ccccc1 (configuration not stated) | -10.2% | -9.4%
COc1ccc(S(=O)(=O)N(CCCN2CCOCC2)Cc2ccc(OC)c(OC)c2)cc1 | . | -11.0%
CC(=O)c1sc(NC(=O)c2cc(=O)c3ccccc3o2)nc1C | i | -19.1%
Cc1ccccc1Cn1nnc2c(=O)[nH]c(C3CCN(C(=O)c4ccc(F)cc4)CC3)nc21 | 11.7% | -0.2%
O=C(Cn1cncn1)N/N=C/c1cccnc1 | -3.5% | -2.1%
CCCc1c(-c2ccc(F)cc2)ncn1Cc1ccccc1OC | -17.2% | -16.9%
Nc1ccc2c(c1)C(=O)N(c1cccc3ccccc13)C2=O | ? | -25.2%
OCC(O)C(O)C(O)CO (configuration not stated) | i | -6.7%
COc1cc(OC)cc(C(=O)N[C@H](C(=O)OCC(=O)Nc2ccc(F)c(F)c2F)C(C)C)c1 | -1.5% | -9.2%
Cc1ccc(NS(=O)(=O)c2ccc3c(c2)CC(=O)N3)cc1C | -18.0% | -19.5%
Cc1ccc(C(C)C)c(OCC(=O)Nc2ccc(-c3nc4ncccc4o3)cc2C)c1 | 7.6% | 4.5%
C=CCN1C(=O)CSc2ccc(C(=O)NCc3cccs3)cc21 | i | -11.5%
O=C(NCCCn1ccnc1)C(=O)NCC1OCCN1S(=O)(=O)c1ccc2c(c1)OCCO2 (configuration not stated) | -25.1% | -12.6%
Fc1ccc(CNc2nc(-c3ccccc3)cc(C(F)(F)F)n2)cc1 | 2.0% | -0.3%
CC(C)c1nc(N2CCOCC2)c(C#N)c2c1CCC2 | -9.1% | -6.7%
Cc1cccc(NC(=O)CNC(=O)c2sc3ccccc3c2Cl)n1 | i | -7.7%
Cc1ccc(NC(=O)C2CCN(S(=O)(=O)c3c(C)noc3C)CC2)cc1C | -7.3%&0.2% | -5.3%&-1.1%
CC(C)n1c(=N)c(C(=O)NC2CCCCC2)cc2c(=O)n3ccccc3nc21 | -2.0% | -4.2%
CCOc1ccccc1NC(=O)C1CCC(=O)N1S(=O)(=O)c1ccc(C)cc1 (configuration not stated) | -2.9% | -18.0%
CCCc1cc(=O)[nH]c(SCC(=O)N2CCN(c3ccc(F)cc3)CC2)n1 | . | -11.1%
O=C(Cc1cccs1)N/N=C/C=C\c1ccco1 | i | 5.4%
CCOC(=O)c1cc(C#N)c(N2CCCNCC2)nc1C(F)(F)F | i | -7.1%
O=C(N/N=C\c1ccc(CNS(=O)(=O)c2ccc(Cl)cc2)o1)C(=O)Nc1ccc(Oc2ccccc2)cc1 | -11.8% | 2.2%
COCCCN1C(=O)C(CC(=O)NCCN2CCOCC2)CC(C(=O)N2CCCCCC2)=C1C (configuration not stated) | -6.1% | -4.0%
Cc1cccc(NC(=O)CNC(=O)COc2cc(F)ccc2[N+](=O)[O-])c1C | i | 2.8%
COc1ccc(CN2CC[C@H]3C=CCc4cccc(c43)C2)cc1 | -8.5% | -3.3%
Cc1ccc(-c2nc3ccccc3nc2-c2ccccc2)cc1 | i | -22.8%
O=C1CCCN1CCCNC(=S)Nc1ccccc1 | -13.1% | -4.1%
CCC(C(=O)O)c1ccccc1 (configuration not stated) | -17.7% | -13.0%
O=C(CNC(=O)c1ccc(F)cc1)N/N=C/c1ccc(O)c([N+](=O)[O-])c1 | -11.5% | -19.3%
CN(CC(=O)NCCC1=CCCCC1)S(=O)(=O)c1ccc2c(c1)CCC(=O)N2 | i | -8.7%
C=CCC1(CC=C)CCCN1C(=O)CC1C(=O)NCCN1Cc1cccc(OC)c1 (configuration not stated) | -6.6% | -8.8%

2 of the compounds above, field by field:
Structure: Cc1ccc(-c2nc3ccccc3nc2-c2ccccc2)cc1
- VACV mCherry inh = i
- VACV Venus inh = -22.8%

Structure: COc1ccc(CN2CC[C@H]3C=CCc4cccc(c43)C2)cc1
- VACV mCherry inh = -8.5%
- VACV Venus inh = -3.3%

(listing goes on)
SMILES | VACV mCherry inh | VACV Venus inh
OC(COCc1ccccc1)CN1CCCC1 (configuration not stated) | -0.2% | -2.9%
COC(=O)[C@@H](NC(=O)NCc1ccccc1F)C(C)C | i | -25.4%
COC(=O)C1=C(c2ccc(OC(F)(F)F)cc2)C[C@@H]2CC[C@H]1N2C(=O)NCC1CC1 | -12.4% | ?
CCc1ccc(NC(=O)C2CCN(C(=O)N3CC(CC)Oc4ccccc43)CC2)cc1 (configuration not stated) | -4.8% | -17.7%
CCN(CC)S(=O)(=O)c1ccc(OC)c(NC(=O)c2sc3ccccc3c2Cl)c1 | -25.7% | ?
CCC(=O)NC(c1ccc(OC)c(OC)c1)c1cc(Cl)c2cccnc2c1O (configuration not stated) | 11.2µM* | ?
CCC(C)c1ccc(OCc2ccc(C(=O)OC)o2)cc1 (configuration not stated) | i | -6.2%
Cc1ccc(C(=O)NC(C)c2ccc(-n3ccnc3)cc2)o1 (configuration not stated) | -7.7% | -5.2%
CCOC(=O)C1CCN(C2CCN(C(=O)c3oc4c(F)cccc4c3C)CC2)CC1 | -15.0% | 1.6%
CC(=O)Nc1ccc(S(=O)(=O)Nc2cccc(NC(=O)C(C)(C)C)c2)cc1 | -19.2% | -12.1%
CN(CC(=O)Nc1ccc(Cl)cc1)C(=O)CCc1nc2sc3c(c2c(=O)[nH]1)CCCC3 | -8.9% | -28.1%
CC1(Cc2ccccc2Cl)C(=O)Nc2ccc(OC(F)(F)F)cc21 (configuration not stated) | 2.3% | ?
COc1cc(N)n(S(=O)(=O)c2ccc(C)cc2)n1 | -5.1% | -25.4%
CCCC(=O)N(CCN1CCOCC1)c1nc2c(OC)ccc(C)c2s1 | -25.2% | -8.8%
O=C(O)COc1ccc(NC(=O)c2ccc(NC(=O)c3ccco3)cc2)cc1 | -7.2% | -6.9%
Cc1cccc(NC(=O)COc2ccc(-c3nn(C)c(=O)c4ccccc34)cc2)c1 | ? | ?
CS(=O)(=O)c1ccc(NC(=O)CCN2C(=O)C3CC=CCC3C2=O)cc1 (configuration not stated) | -19.2% | -16.6%
COc1ccc(F)cc1S(=O)(=O)Nc1ccc(C)cc1 | . | -29.4%
COc1ccc(N2CCN(S(=O)(=O)CCNC(=O)C3CCCCC3)CC2)cc1 | i[7.34 µM] | -8.3%[7.34 µM]
Oc1cccnc1CCc1ccccc1 | i | -8.4%
COc1ccc(NC(=O)COC(C)=O)cc1OC | i | -2.6%
Cc1cc(NC(=O)c2ccc(C#N)cc2)n(-c2ccccn2)n1 | i | -9.8%
CC(C)NC1(C(N)=O)CCN(Cc2ccccc2)CC1 | 0.0% | -4.4%
Cc1ccccc1NC(=O)c1sc(NC(=O)C2CC2)nc1C | -5.9% | ?
COc1ccc(CNC(=O)CCC(=O)N2CC(C)Oc3ccccc32)cc1 (configuration not stated) | 4.3% | -5.9%
CC[C@H](CO)NCCN[C@H](CC)CO | -1.6% | -17.4%
CN1C(=O)[C@H]2[C@@H](C3CC3)N3C(=O)CN(Cc4ccccn4)C(=O)[C@@]3(Cc3ccccc3)[C@H]2C1=O | -23.9% | -13.0%
CC1(C(=O)Nc2cnc3ccccc3c2)CCN1CCc1ccccc1 (configuration not stated) | 0.7% | -5.9%
CSCCC(NC(=O)c1ccc(Cl)cc1)C(=O)OCC(=O)Nc1ccc(C#N)cc1 (configuration not stated) | -15.4% | -13.7%
COC(=O)C1=C[C@@H](C(=O)OC)[C@@H]2C3=C(C(=O)[C@]2(CC(C)C)NC(=O)c2ccccc2)[C@H](C)n2c(=O)n(-c4ccccc4)c(=O)n2[C@@H]3C1 | i | 0.5%
C=CCNC(=O)N1CCC(c2nc3ccccc3s2)CC1 | i | -6.8%
Cc1cc(C)c(S(=O)(=O)NCCc2cc3ccc(C)c(C)c3[nH]c2=O)c(C)c1 | -16.1% | -12.1%&-11.9%
COc1ccc(-n2nnnc2SCC(=O)Nc2nnc(C)s2)cc1OC | -1.9% | -9.3%
CCOc1ccccc1Oc1c(C)oc2cc(OC(=O)N3CCOCC3)ccc2c1=O | -6.9% | -12.7%
O=C(c1ccc(N2CCC3(CC2)OCCO3)c([N+](=O)[O-])c1)N1CCOCC1 | i | -3.6%
CC1(C)CC(=O)c2cnc(N3CCc4ccccc4C3)nc2C1 | -13.1% | -3.6%
Oc1ccc2ccccc2c1C=NCc1cn2ccsc2n1 | -4.8% | -6.2%
C[C@H](CO)N1C[C@H](C)[C@H](CN(C)Cc2cccc(O)c2)OCc2ccccc2-c2c(n(C)c3ccccc23)C1=O | -22.3% | -20.9%
O=C(c1ccc(F)cc1)N1CCN(c2ccccn2)CC1 | -10.6% | -1.3%
O=C(Nc1ccc(Br)cc1Br)C1CC(=O)N(Cc2ccccc2)C1 (configuration not stated) | -30.9% | -24.5%
CCC(C)N(C(=O)Cn1nc(C)c([N+](=O)[O-])c1C)C1CCS(=O)(=O)C1 (configuration not stated) | -14.7% | -15.0%
O=C(COC(=O)c1ccc(S(=O)(=O)N2CCCCC2)cc1)Nc1ccccc1Cl | -12.7% | -9.9%
Cc1ccc(N(C)C(=O)C2CCCN2S(=O)(=O)c2cccc3nsnc23)cc1 (configuration not stated) | ? | -20.7%
O=c1c(-c2cc(-c3ccccc3)nc3c2COc2ccc(Cl)cc2-3)coc2ccccc12 | -7.1% | 1.4%
CCCCCCn1c(C(C)O)nc2ccccc21 (configuration not stated) | -10.7% | -10.2%
Cc1ccccc1NC(=O)Cn1c(=O)n(Cc2ccc3c(c2)OCO3)c(=O)c2ccc(C(=O)NC3CCCCC3)cc21 | ? | ?
COc1ccc(C(=O)Nc2ccc3nc(C)sc3c2)cc1OC | 12.0% | 1.8%
CCn1c(=O)c2cc(C(=O)NC3CCC(C)CC3)sc2c2ccccc21 (configuration not stated) | -2.1% | -15.8%
CCOc1ccccc1NC(=S)N(CCCN1CCOCC1)Cc1cn(C)c2ccccc12 | -24.7% | -27.0%
COc1ccc(-c2noc(-c3ccc(NCc4cccnc4)c([N+](=O)[O-])c3)n2)cc1 | 0.6% | -1.8%

More compounds:
SMILES | VACV mCherry inh | VACV Venus inh
CCN(c1ccccc1)S(=O)(=O)c1ccc(C(=O)NCc2ccccn2)cc1 | -1.3% | -9.3%
O=C(Nc1ccccc1)c1ccc(NCCN2C(=O)CCC2=O)c([N+](=O)[O-])c1 | -8.3% | -2.4%
O=C(NCc1ccc2c(c1)CCN2C(=O)c1ccncc1)c1cccc(Cl)c1 | -23.1% | -12.3%
O=C(Nc1ccc(C(O)c2ccccc2)cc1)[C@H]1C[C@H](O)[C@@H](CO)O1 (some centres not stated) | -0.6% | 7.6%
CCc1ccc(NC(=O)N2CCC(c3ccccc3)C2)cc1 (configuration not stated) | i | -14.5%
CN(C(=O)c1ccccc1[N+](=O)[O-])c1ccccc1C(=O)NCc1ccccc1 | -11.7% | -5.9%
CC1(c2ccc(Cl)c(Cl)c2)NC(=S)N2C1NC(=S)N2c1ccccc1 (configuration not stated) | -22.1% | -18.1%
O=C(CN1CCc2ccccc21)Nc1ccc2c(c1)OCO2 | -7.4% | -1.0%
O=S(=O)(NCCNS(=O)(=O)c1cccs1)c1cccs1 | i | -17.6%
CC1CN(c2nnc(-c3ccccc3)c3ccccc23)CC(C)O1 (configuration not stated) | -11.2% | -16.1%
CC(C)(C)Cc1nnc(NC(=O)c2cc(-c3ccccc3)nc3ccccc23)s1 | -17.0% | -5.0%
COc1ccc(-c2coc3c(C)c4oc(=O)c(CC(=O)O)c(C)c4cc23)cc1 | -12.6% | -1.6%
Cc1cc2ncc(-c3ccc(Cl)cc3)c(N)n2n1 | -8.4% | -21.8%
Cc1ccc(N2C(=O)CS(=O)(=O)C23C(=O)Nc2ccccc23)cc1C (configuration not stated) | 0.2% | 0.1%
COc1ccc(-c2cc(C(=O)NCCc3ccc(S(N)(=O)=O)cc3)c3ccccc3n2)cc1 | -5.1% | -7.5%
CCNc1nc(NCC)nc(OCCOC(C)=O)n1 | -5.4%[1.46 µM] | -21.5%
O=C1CCNc2c(Cl)cc(Cl)cc21 | -1.8%[7.34 µM] | 5.4%[7.34 µM]
CCC(C(=O)OCC(=O)Nc1ccc2[nH]c(=O)[nH]c2c1)c1ccccc1 (configuration not stated) | i | -13.3%
Cc1ccn2c(CNCCCn3cccn3)c(C(=O)N3CCCCCC3)nc2c1 | 5.2% | 5.8%
C/C(=N/NC(=O)CNC(=O)c1ccc2c(c1)OCO2)c1ccc2c(c1)CCCC2 | ? | ?
COc1ccc(CCn2c(=N)c(C(=O)N3CCN(C)CC3)cc3c(=O)n4ccccc4nc32)cc1 | . | -8.7%
